# Assay outcomes (PubChem)
# Vaccinia mCherry = inhibitors of vaccinia virus infection (mCherry reporter signal) | Vaccinia virus mCherry reporter infection, fluorescence; about a quarter of the inactives have no number | hit rate 0.63% among 310,000 | Potency, µM (doses to about 36.5 µM), inactives show at the top dose activity change, negative = inhibition, actives largely listed as inhibitors | AID 720579; active = well fitted inhibition curve with a large enough effect; inconclusive = small, poorly fitted or top-dose-only effect; inactive = no such curve, though single readings can be large or run the other way; tested in A549 cells; further: nearly all actives have a fitted effect of over 35% in size; inactives centre near -10
# VACV Venus inh = inhibitors of vaccinia virus (Venus reporter); Vaccinia virus Venus reporter expression, fluorescence; Potency, µM (top dose mostly 36.5 µM), inactives show at the top dose activity change, negative = inhibition, most hits filed as inhibitors; hit rate 0.46% among 330,000; AID 720580; active means well fitted inhibition curve with a large enough effect; inconclusive means small, poorly fitted or top-dose-only effect; inactive means no such curve, though single readings can be large or run the other way; tested in A549 cells; further: nearly all actives have a fitted effect of over 30% in size; inactives centre near -10
# * hit, by the source's call; i = inactive; ? = inconclusive; / = no result given; & = joins results of further samples; [ ] = remark or other dose. On the % scale 0 is the no-effect control and ±100 the full control effect; potency means the concentration at half of the fitted maximal effect.
Molecule | Vaccinia mCherry | VACV Venus inh
O=C(CCNS(=O)(=O)c1c(Cl)cccc1Cl)OCC(=O)c1ccccc1F | -10% | -11%
COc1ccccc1C(=O)OCc1cc(=O)n2nc(C(C)C)sc2n1 | -9% | -2%
COc1cc(NC(=O)c2cc(C3CC3)nc3c2c(C)nn3-c2ccccc2)cc(OC)c1 | -8% | -12%
COc1cc(C=O)ccc1OCCCOc1ccc([N+](=O)[O-])cc1 | -15% | -7%
CN(C)C(CNC(=O)c1cccc(S(=O)(=O)N(C)C)c1)c1ccccc1 (stereo not drawn) | i | -5%
CCC(=O)N1CCN(c2ccccc2NC(=O)Cc2ccc(Cl)cc2)CC1 | i | -20%
Fc1ccc(Nc2ccnc(Nc3ccc(F)cc3)n2)cc1 | 10µM* | 11µM*
Cc1oc(-c2ccccc2)[n+]([O-])c1C | 0% | 6%
O=C(N/N=C/c1ccc(Br)o1)/C(=C/c1ccc([N+](=O)[O-])cc1)NC(=O)c1ccccc1 | ? | -9%
NCCCC[C@H]1CNC(=S)N1CC1CCCCC1 | -3% | -8%
O=C(CSc1nncc2ccccc12)Nc1cccc(C(=O)O)c1 | -1% | -3%
CC(C)Cc1n[nH]c(=O)c2c1nnn2Cc1ccccc1F | i | -15%
CC1(Cc2ccc(F)cc2)C(=O)Nc2c(Cl)cccc21 (stereo not drawn) | i | ?
Cc1ccc2c(c1)C(c1ccc(F)cc1)N(C(=O)c1ccc(OC(C)C)cc1)CC(=O)N2 (stereo not drawn) | ? | -14%
CC(=O)c1ccc(Sc2ccccn2)c([N+](=O)[O-])c1 | i | -10%
CCS(=O)(=O)N1CCC(C(=O)NCc2ccccn2)CC1 | -12% | -1%
CSc1nc(=S)n(Cc2ccccc2)c(C)c1C(C)=O | i | -4%
O=C1OCC/C1=C\c1ccccc1 | i | -10%
CC(C)(C)C1CCC(=NNC(=O)C(=O)NCc2cccnc2)CC1 (stereo not drawn) | -7% | -14%
Cc1ccc(OC(=O)c2cccc([N+](=O)[O-])c2)c(-n2nc3ccccc3n2)c1 | i | -10%
Cc1nnc(N2C(=O)C(=O)/C(=C(/O)c3ccc4c(c3)OCCO4)C2c2ccc(F)cc2)s1 (stereo not drawn) | 15%[7.34 µM] | 9%[7.34 µM]
C/C=C/C(=O)OCC(=O)Nc1ccc(F)cc1Cl | -19% | -18%
CCOC(=O)c1c(S(=O)(=O)N2CCC(C(=O)Nc3ccc(C)cc3C)CC2)c(C)n(C)c1C | 1% | 6%
O=C(NC1CCCC1)C(c1ccsc1)N(CCc1ccccc1)C(=O)Cc1cccs1 (stereo not drawn) | i | -9%
CCN(CC(=O)Nc1c(F)cccc1F)C(=O)COc1ccc2c(c1)CCC2 | -15% | -14%
C/C(=N\NC(=O)CSc1nc(C)cc(C)n1)c1cccc([N+](=O)[O-])c1 | -11% | 1%
CCn1c(CCNC(=O)c2ccc(OC)cc2)nnc1SCc1ccc(Cl)cc1Cl | -28% | ?
O=C(Cc1ncc(C(F)(F)F)cc1Cl)NCCc1ccccc1 | -3% | -9%
Cc1ccc(NCc2cccn2-c2nnc(N3CCC(C(=O)NCc4ccc(F)cc4)CC3)s2)cc1 | ? | -27%
CCOC(=O)C1CCCN(c2c(N3CCC(N4CCCCC4)CC3)c(=O)c2=O)C1 (stereo not drawn) | 5% | -6%
CCCCN=C1C([N+](=O)[O-])=CC=C2C1=NC1(CCCCC1)N2O | -22% | -3%
O=C(O)CC1=C(Nc2ccccc2)C(=O)N(c2ccccc2)C1c1ccc(Br)cc1 (stereo not drawn) | -14% | -12%
CC(=O)c1ccc(NS(=O)(=O)c2ccc(-n3cccn3)cc2)cc1 | -5% | -5%
CCOc1c(Cl)cc(CNCC(C)C)cc1Cl | -22% | -7%
CCc1cccc(C)c1NS(=O)(=O)c1ccc2c(c1)NC(=O)C(C)C(=O)N2 (stereo not drawn) | -6% | -4%
CN(C)c1ccc(-c2csc(C(O)(c3ccccc3)C(F)(F)F)n2)cc1 (stereo not drawn) | -15% | -8%
COc1cccc(CNc2nc(NCC3CC3)nc3ccsc23)c1 | i | -20%
CC(=O)Nc1cc(-n2cnnn2)ccc1C | i | 2%
CC1CC(=S)Nc2ccccc2S1 (stereo not drawn) | -10% | 0%
O=C(CNC(=O)Cc1ccc(Cl)cc1)NCc1ccco1 | i | -8%
CCOC(=O)C1CCN(c2ncnc3c2nnn3C)CC1 | -21% | -11%
COc1cccc(-n2c(=O)c3ccccc3n(CC(=O)NCC3CCCO3)c2=O)c1 (stereo not drawn) | -16% | 8%
CC(C)c1ccc(C(=O)NC(=S)NCc2cccnc2)cc1 | -22% | -14%
O=C(O)c1ccc(NC2=C/C(=N/S(=O)(=O)c3cccs3)c3ccccc3C2=O)cc1 | -6% | 8%
CCOC(=O)c1cnc(SCC(=O)N2CCOCC2)nc1N | -8% | -1%
O=C(CCSCc1cnn(-c2ccccc2)c1-n1cccc1)NCc1ccccc1F | -2% | -11%
COc1cccc(-c2nc3c(c(SCc4ccccc4Cl)n2)Cc2c(CO)cnc(C)c2O3)c1 | -3% | -4%
O=C(CSc1ccc2nnc(-c3ccncc3)n2n1)Nc1ccc2c(c1)OCO2 | -6% | -14%
CC(C)=CCN1CCN(Cc2cccnc2)CC1CCO (stereo not drawn) | -7% | -1%
CC1(Oc2ccccc2-c2ccno2)CCN(Cc2ccc(-c3ccccc3)o2)C1 (stereo not drawn) | -12% | 1%

# A draw from above in order of heavy-atom count, descending:
Molecule | Vaccinia mCherry | VACV Venus inh
Cc1ccc(NCc2cccn2-c2nnc(N3CCC(C(=O)NCc4ccc(F)cc4)CC3)s2)cc1 | ? | -27%
Cc1ccc2c(c1)C(c1ccc(F)cc1)N(C(=O)c1ccc(OC(C)C)cc1)CC(=O)N2 (stereo not drawn) | ? | -14%
O=C(N/N=C/c1ccc(Br)o1)/C(=C/c1ccc([N+](=O)[O-])cc1)NC(=O)c1ccccc1 | ? | -9%
CC1(Oc2ccccc2-c2ccno2)CCN(Cc2ccc(-c3ccccc3)o2)C1 (stereo not drawn) | -12% | 1%
O=C(CSc1ccc2nnc(-c3ccncc3)n2n1)Nc1ccc2c(c1)OCO2 | -6% | -14%
CCN(CC(=O)Nc1c(F)cccc1F)C(=O)COc1ccc2c(c1)CCC2 | -15% | -14%
CCC(=O)N1CCN(c2ccccc2NC(=O)Cc2ccc(Cl)cc2)CC1 | i | -20%
CN(C)C(CNC(=O)c1cccc(S(=O)(=O)N(C)C)c1)c1ccccc1 (stereo not drawn) | i | -5%
C/C(=N\NC(=O)CSc1nc(C)cc(C)n1)c1cccc([N+](=O)[O-])c1 | -11% | 1%
CC(=O)c1ccc(NS(=O)(=O)c2ccc(-n3cccn3)cc2)cc1 | -5% | -5%
O=C(Cc1ncc(C(F)(F)F)cc1Cl)NCCc1ccccc1 | -3% | -9%
CC(C)c1ccc(C(=O)NC(=S)NCc2cccnc2)cc1 | -22% | -14%
CCS(=O)(=O)N1CCC(C(=O)NCc2ccccn2)CC1 | -12% | -1%
CCOc1c(Cl)cc(CNCC(C)C)cc1Cl | -22% | -7%
Cc1oc(-c2ccccc2)[n+]([O-])c1C | 0% | 6%

# Later entries:
Molecule | Vaccinia mCherry | VACV Venus inh
COC(=O)N(C)C[C@@H]1OCc2cnnn2CCCC(=O)N([C@H](C)CO)C[C@H]1C | ? | 2%
CCOc1cc(CC(=O)N[C@@H](CC(C)C)c2ccccc2N2CCCCC2)ccc1C(=O)O | i | -10%
Cc1cc(C)n2nc(C(=O)NC3CCCc4ccccc43)nc2n1 (stereo not drawn) | -28% | -16%
COC(=O)c1cccc(C23CC4(C2)[C@H](CN(Cc2ccc(-c5ccccc5)cc2)[C@@H]4c2ccccc2)C3c2ccc(Cl)nc2)c1 (stereo partly drawn) | -14% | -16%
CCOCCCn1c(=N)c(C(=O)NC2CCCC2)cc2c(=O)n3cccc(C)c3nc21 | 10% | -4%
CCCCOc1ccc(S(=O)(=O)NC(=O)C2(C)CCN2C(=O)CCc2ccccc2)cc1 (stereo not drawn) | -8% | 6%
COc1ccc(CNC(=O)C(=O)NCC(c2cccs2)S(=O)(=O)c2ccc(F)cc2)cc1 (stereo not drawn) | -17% | -7%
O=C(NN1C(=O)NC2(CCCCC2)C1=O)c1cccs1 | -20% | -19%
Cc1ccc(S(=O)(=O)NC(CC(=O)N2CCc3ccccc32)c2ccco2)cc1 (stereo not drawn) | / | -7%
Cc1ccc(N2CCN(S(=O)(=O)c3cccs3)CC2C)cc1 (stereo not drawn) | ? | -4%
CC1(C)SC[C@H](C(=O)Nc2cccc(Cl)c2)N1C=O | -14% | -8%
COCCCNc1oc(/C=C/c2ccccc2)nc1C#N | -25% | -4%
COCCCn1c(=O)c2sccc2n2c(CCCC(=O)NCc3ccc(OC)cc3)nnc12 | -12% | -2%
CCOc1ccc(NS(=O)(=O)c2ccc3[nH]c(=O)[nH]c3c2)cc1 | -8% | -1%
COc1ccc(C(C)=O)cc1COC(=O)c1cccnc1Cl | -6% | -5%
Cc1nc2cc(-c3ccccc3)sc2c(=O)n1N | -16% | -5%
COc1ccc(OC)c2c1sc(=NC(=O)c1ccco1)n2C | -9% | -1%
CC(C)=C(C)c1cc2nc(NCCCN(C)C)n(C)c(=O)c2s1 | 0% | -21%
CCc1nnc(SCC(=O)Nc2ccc(NC(C)=O)cc2)n1-n1cccc1 | -23% | -12%
Oc1ccc(N2Cc3ccccc3C2)cc1 | ? | -4%
COc1ccc(/C=C(\C)C(=O)NO)cc1 | -3% | -13%
O=C(Nc1ccc(S(=O)(=O)N2CCCCC2c2cccnc2)cc1)c1ccc(F)cc1 (stereo not drawn) | -18% | -10%
CCCC(=O)Nc1ccc(NC(=O)c2ccccn2)cn1 | -8% | -3%
CCn1nnc2cc(C(=O)Nc3ccc(Br)cc3F)ccc21 | 1% | -2%
C/C=C(/C)C(=O)Nc1cccc(C2=NOC3(C2)C[C@@H](C(N)=O)N(C(=O)CC(c2ccccc2)c2ccccc2)C3)c1 (stereo partly drawn) | i | ?
Cc1nc2ncccn2c1-c1csc(NCc2ccco2)n1 | -12% | -20%
COc1ccc(N(CC(=O)NCCc2ccccc2)C(=O)c2csnn2)cc1OC | -9% | -1%
C/C(=N\NC(=O)c1ccc(N2CCCC2=O)cc1)c1ccccc1 | -8% | -1%
O=C(CCNc1ccccc1)c1ccc2c(c1)OCO2 | -15% | -12%
Cc1cccc(C(C)(C)C)c1OCCOCCN1CCCC1 | i | -12%
Cc1ccc(NC(=S)NCc2ccc(F)cc2)c(C)c1 | i | -4%
CCOc1c2ccc(C(=O)NCCCCc3ccccc3)cc2nn1C | i | -10%
O=C(CSc1nc(-c2ccco2)cc(C(F)(F)F)n1)Nc1cccnc1 | ? | ?
OCC1(CCOc2ccccc2)CCN(Cc2cc(Cl)ccc2O)CC1 | -20% | -20%
COc1ccc(CC(=O)Nc2cc(F)ccc2F)cc1S(=O)(=O)N1CCOCC1 | i | -14%
CCCn1c(SCC(=O)N(CC)CC)nnc1-c1ccncc1 | i | -10%
COC(=O)C1=C(c2ccc3ccccc3c2)C[C@@H]2CC[C@H]1N2C(=O)NCCO | -11% | -20%
O=C(COC(=O)C1CC1)NCc1ccccc1Cl | -28% | -18%
CCSc1nc2ccccc2n1CC(=O)O | -1% | -6%
O=S(=O)(c1ccc(Cl)c(Cl)c1)N1CCc2nc3ccccc3n2CC1 | -14% | -5%
CN1CCC(=NNC(=O)COc2ccc(Cl)cc2)CC1 | ? | -15%
Cc1ccc(OCc2ccc(-c3ccccc3)cc2)c([N+](=O)[O-])n1 | -19% | -14%
COC(=O)CNC(=O)c1c(-c2ccccc2Cl)noc1C | / | -7%
Cc1cccc(C)c1NC(=O)C(Cl)=C(Cl)Cl | ? | -21%
CCC1=NN2C(=N)/C(=C/c3c(C)nn(-c4ccccc4)c3Cl)C(=O)N=C2S1 | 16% | 7%
CCC(C)NC(=O)CCS(=O)(=O)c1ccc(Br)s1 (stereo not drawn) | -16% | -6%
O=C(O)C(c1ccccc1)c1ccccc1 | 2% | -1%
CCOc1cc(/C=C2\N=C(SCC)SC2=O)cc([N+](=O)[O-])c1OC(C)=O | -16% | 0%
COc1ccc2cc(C#N)c(SCC(=O)NNC(=O)Cc3ccccc3)nc2c1 | i | -2%
COc1cc(-c2c(-c3ccc4c(c3)OCO4)noc2-c2ccsc2)ccc1F | -15% | -6%&-2%

# More results.
Molecule | Vaccinia mCherry | VACV Venus inh
COc1nc(-c2ccncc2)nc2ccccc12 | -17% | -10%
Cc1[nH]n(C)c(=O)c1C(=O)c1c(-c2ccccc2Cl)noc1C | ? | -15%
COc1cccc(CNC(=O)c2ccc(C)c(NC3=NC4CS(=O)(=O)CC4S3)c2)c1 (stereo not drawn) | i | -16%
Cc1cc(C)nc(SCNC(=O)c2ccc(F)cc2)n1 | / | 1%
O=C(Nc1ccc(CN2CCOCC2)cc1)c1cccc(-c2cc3ccccc3oc2=O)c1 | -11% | ?
CCOc1ccc(/C=N/OCC(=O)NCc2ccc3c(c2)OCO3)cc1OC | -13% | -8%
CS(=O)(=O)c1cccc(C(=O)OCC(=O)c2ccc3c(c2)OCCO3)c1 | -12% | -10%
CCc1ccc(/C=N/NC(=O)c2cc(C)on2)s1 | -19% | -17%
CCN(Cc1nc(-c2ccccc2)no1)C(=O)COc1cccc(OC)c1 | -8% | -16%
